Compound activity deposited in PubChem by National Center for Advancing Translational Sciences (NCATS).
ClpP mod: qHTS Assay for Activators of ClpP | purified B. subtilis ClpP, FRET peptide cleavage, 20 min | ATP-dependent Clp protease proteolytic subunit (Bacillus subtilis (strain 168)), P80244 | actives 1.9% (n = 340,000) | Potency, µM (series often up to 57.5 µM), for the others: top-dose activity change, negative = active; active = well fitted falling curve with a large enough effect; inconclusive = small, poorly fitted or top-dose-only effect; inactive = no such curve, though single readings can be large or run the other way; also: potency is read from the fitted curve at half-maximal effect; the source files actives as falling curves though it sought activators and does not explain the sign; nearly all actives have a fitted effect of over 65% in size; many hits overshoot -100%
Target sequence (P80244 whole entry, looked up): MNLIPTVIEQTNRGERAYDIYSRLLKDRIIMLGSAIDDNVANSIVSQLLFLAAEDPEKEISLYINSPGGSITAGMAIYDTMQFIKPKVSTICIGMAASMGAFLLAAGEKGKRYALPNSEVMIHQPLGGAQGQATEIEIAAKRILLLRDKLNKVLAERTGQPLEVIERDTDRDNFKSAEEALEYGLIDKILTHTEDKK
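Buffer: 100 mM Tris/HCl pH8, 100 mM KCl, 0.05% low protease BSA, 2.5% glycerol, 0.01% Tween-20. ClpP 10 microg/mL final; 20 min RT; delta FRET normalized to ADEP and DMSO controls.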
gsp antagonist: antagonizes gsp, the McCune-Albright syndrome mutation | actives 0.4% (n = 340,000) | Potency, µM (highest dose often 76.9 µM), for the others: at the top dose activity change, negative = inhibition, most hits filed as inhibitors | gsp-mutant cells, cAMP HTRF, 30 min; control for the full effect not named in the record; active = falling curve of any shape with a large fitted effect; inconclusive = falling curve, mostly with a smaller effect; inactive = flat or rising curve; cell line not stated here;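 also: intracellular cAMP measured with PDE inhibitor Ro 20-1724 present during compound exposure; potency is read from the fitted curve at half-maximal effect; % is scaled to controls: 0 for no effect and ±100 for the full control effect; nearly all actives have a fitted effect of over 65% in size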
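Cells, 2000/well, grown 16–24 h in DMEM 10% FBS with 0.5 mg/ml G418, then compounds plus […] (300 uM addition stock), 30 min at 37C. cAMP read by HTRF (cAMP-d2 and anti-cAMP antibody-K in lysis buffer) after 30 min RT.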
TRPML1 ag: activates the human TRPML1 channel; TRPML1-expressing cells, Ca2+ dye fluorescence, FDSS; host cell line not named in the record; reference of the full effect not given here; activation, % (no concentration beside the values); Q9GZU1; actives 0.12% (n = 410,000); AID 624414; in the data active = activation above about 50%; inconclusive = about 30% to 50%; inactive = below about 30%; also: 0% is about no effect; the text of the record puts the active cut at 80%
Target sequence (Q9GZU1 whole entry, looked up): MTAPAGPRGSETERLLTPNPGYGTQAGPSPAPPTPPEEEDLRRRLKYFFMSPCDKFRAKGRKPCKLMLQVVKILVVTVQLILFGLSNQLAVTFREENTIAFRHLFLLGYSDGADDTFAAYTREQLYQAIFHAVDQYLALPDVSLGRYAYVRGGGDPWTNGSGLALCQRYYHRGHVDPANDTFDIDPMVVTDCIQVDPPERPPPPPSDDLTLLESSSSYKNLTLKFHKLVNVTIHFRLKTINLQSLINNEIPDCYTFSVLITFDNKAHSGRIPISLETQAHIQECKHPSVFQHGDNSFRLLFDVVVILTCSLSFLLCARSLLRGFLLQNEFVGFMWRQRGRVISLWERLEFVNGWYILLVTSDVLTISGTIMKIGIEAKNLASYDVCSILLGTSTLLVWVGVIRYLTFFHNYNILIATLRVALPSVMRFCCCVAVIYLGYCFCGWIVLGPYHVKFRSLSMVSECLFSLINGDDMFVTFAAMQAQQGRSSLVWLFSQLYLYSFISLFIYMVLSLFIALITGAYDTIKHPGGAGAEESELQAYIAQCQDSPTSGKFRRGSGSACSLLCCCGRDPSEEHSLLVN
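Calcium fluorescence on an FDSS kinetic reader gave the read-out. Tet-induced TRPML1-DL cells were plated overnight, dye-loaded (Ca8 with quencher, 45-90 min, room temperature, dark), then read 110 s after compound addition, and again 110 s after 4uM final 54-4 (EC80).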
gsp ag: gsp mutant agonism; gsp mutant cells, cAMP HTRF, 30 min; control for the full effect not named in the record; Potency, µM (top dose mostly 76.9 µM), inactives show at the top dose activation (cAMP increase), most hits filed as activators; actives 0.13% (n = 340,000); active = well fitted activation curve with a large enough effect; inconclusive = small, poorly fitted or top-dose-only effect, or another doubt; inactive = no such curve, though single readings can be large or run the other way; cell line not stated here;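 also: phosphodiesterase inhibitor Ro 20-1724 added with compounds to block cAMP breakdown; potency is read from the fitted curve at half-maximal effect; nearly all actives have a fitted effect of over 60% in size; about a fifth of the inactives were tested at one dose only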
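Cells in DMEM/10% FBS with G418 were pretreated with compounds in DMSO plus […] (300 uM stock) for 30 min at 37C. cAMP was measured by HTRF (cAMP-d2 plus anti-cAMP antibody-K) after 30 min at room temperature.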
TRPML1 inh: human mucolipin-1 channel inhibition. activity change, negative = inhibition, % (no concentration beside the values). actives 0.02% (n = 390,000). Q9GZU1. TRPML1-inducible cells, Ca2+ dye fluorescence, FDSS; stronger effect = lower value; inhibition of EC80 agonist-evoked calcium signal. AID 624415; in the data active means activity change below about -50%; inconclusive means about -30% to -50%; inactive means above about -30%;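 also: stimulus is agonist 54-4 at its EC80 concentration; % is scaled to controls: 0 for no effect and ±100 for the full control effect; compound concentration not given in the record; the text of the record puts the active cut at -80%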
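Calcium fluorescence in TRPML1-DL cells induced overnight with Tet: a 110 s read after compound pin addition, then a 110 s antagonist read after challenge with 54-4 at 4 uM final (EC80).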
Menin MLL FP FL: displaces fluorescein MLL peptide from human menin | Fluorescence polarization, fluorescein-MLL peptide displacement from menin | FP activity change, % at 61.4 µM | 290,000 tested, under 10 active | AID 1766; inconclusive = falling polarisation curve, or a change in total fluorescence; inactive = total fluorescence flat and polarisation flat or rising; no compound was filed as active; the % refers to the polarisation; negative = inhibition;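 also: % of control where 0% means no effect; inhibitors lower the polarisation; unlabelled MLL peptide was the positive control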
Numbers without * were called inactive; ? = inconclusive; . = no result given; & = joins results of further samples; [ ] = dose if it differs, or a comment.

SMILES,ClpP mod,gsp antagonist,TRPML1 ag,gsp ag,TRPML1 inh,Menin MLL FP FL
CN(c1ncnc(N)c1[N+](=O)[O-])C1CCCCC1,-0.4%,-2%,1.3,20%,58,-4.6
Cc1cc(NN)nc(Cc2ccccc2)n1,.,-2%,1.1,-15%,14,-0.4
O=C(Cn1c(C(F)(F)F)nc2ccccc21)c1ccccc1,-4.3%,-2%,0.5,?,3,-0.5
CN(c1ccccc1C(=O)O)S(C)(=O)=O,-3.9%,17%,-0.7,16%,-3,1.0
COc1ccc(NC(=S)NNC(=O)CCn2cc([N+](=O)[O-])cn2)cc1,.,8%,0.5,3%[15.4 µM],-24,0.4
COc1ccc(-c2nc3c(c(=O)[nH]c(=O)n3Cc3ccccc3)n2C)cc1,35µM*,6%,0.0,0%,25,3.3
CNS(=O)(=O)c1ccc(NC(=O)C(CCSC)NC(N)=O)cc1 (stereo unspecified),-3.3%,-3%,-0.2,-4%,6,1.3
O=C(Cn1c(=O)cnc2ccccc21)N1CCN(S(=O)(=O)c2ccccc2Br)CC1,2.2%,-5%,?,7%,3,.
COCCSc1nnc(NC(=O)C2CC(=O)N(c3ccc(Cl)cc3)C2)s1 (stereo unspecified),1.1%,-1%,0.1,-17%[15.4 µM],32,0.1
CN1CCN(C(=O)CCN2C(=O)c3ccccc3S2(=O)=O)CC1,-3.1%,13%,1.1,10%,6,.
c1ccc(CNCCCn2cnc3c(OCc4ccccc4)ncnc32)cc1,-2.7%,8%,0.1,.,8,.
CN(C)c1ccc(/C=N/NC(=O)CNC(=O)/C=C/c2ccccc2)cc1,?,-12%,-0.1,9%[15.4 µM],9,.
N#CCCN(Cc1ccccc1)C(=O)c1nccnc1C(=O)O,1.4%,3%,1.0,10%,-2,0.6
CN(Cc1ccccc1)C(=O)c1[nH]cnc1C(=O)Nc1ccc(Cl)cc1,0.5%,?,0.3,9%,-1,.
CCNC(=O)c1ccccc1SCC(=O)Nc1ccc(F)cc1,.,-3%,0.1,5%[15.4 µM],3,-0.7
CCc1nc(SCC(=O)NC2CC2)c2c(C)c(C)sc2n1,.,6%,-0.4,-6%[15.4 µM],4,-3.5
CC(C)Cc1cc(C(=O)Nc2ccccc2)c2ccccc2n1,1.4%,-15%,0.7,-5%[15.4 µM],-8,-0.2
CSCCC(NC(=O)c1cccc([N+](=O)[O-])c1)c1nc2ccccc2[nH]1 (stereo unspecified),-3.6%,-1%,0.6,-9%,11,4.2
CCCCN(CC)CCCNC(=O)c1cn(C)c2ccc(S(=O)(=O)N(C)C3CCCCC3)cc2c1=O,-3.2%&-2.7%,-5%,0.7&-0.2,7%,34&5,-4.4
O=C(CCNS(=O)(=O)c1ccccc1)N1CCC(Cc2ccccc2)CC1,1.4%,-11%,-0.6,0%,-7,.
CC(OC(=O)c1ccccc1)C(=O)NCc1ccco1 (stereo unspecified),-0.6%,9%,-0.1,0%,-2,.
O=S(=O)(Cc1ccccc1)Nc1cccc(Br)c1,-0.3%,-2%,-0.7,?,1,5.5
CC(=C1C(=O)c2ccccc2C1=O)N1CCN(Cc2ccccc2)CC1,-1.9%,-10%,3.3,-1%,-1,4.1
CN(C(=O)COC(=O)CSc1ccc(C(N)=O)cc1[N+](=O)[O-])C1CCCCC1,-0.5%,-21%,-0.3,?,17,.
COc1ccc(-n2nnnc2SCC(=O)NCc2cccs2)cc1,-1.9%,18%,-0.5,-6%[15.4 µM],-10,2.1
CC(=O)c1oc2ccccc2c1NC(=O)CN1CCCCC1,-4.6%,-1%,0.1,-42%[inhibitor],3,-0.8
COC(=O)c1c(NC(=O)CN2C(=O)NC3(CCC(C)CC3)C2=O)sc2c1CCC2 (stereo unspecified),125%,12%,0.7,-3%,-13,.
COc1ccccc1-n1c(SCC(=O)N(C)C)nnc1-c1ccco1,.,2%,-0.5,-21%,-11,.
COc1ccccc1OCCNC(=O)Cc1ccc(Cl)c(Cl)c1,-2.0%,13%,-0.4,3%[15.4 µM],6,-0.1
Cc1nn(S(=O)(=O)c2ccc(Br)cc2)c(C)c1S(=O)(=O)N1CCCCCC1,1.0%,.,-0.4,.,27,.
COc1cc(C(C)=O)ccc1OCC(O)CN1CCN(c2ccccn2)CC1 (stereo unspecified),.,-2%,-0.3,10%,14,-0.2
OC(CCc1ccncc1)COc1ccccc1 (stereo unspecified),2.6%,6%,-0.6,14%,9,.
CCOc1ccc(NC(=O)CN2C(=O)CSC(C)C2=O)cc1 (stereo unspecified),-1.4%,6%,0.0,-1%[15.4 µM],-1,-2.3
COc1cc(C(=O)N/N=C/c2ccccn2)cc(OC)c1OC,.,2%,-0.8,?,59,3.3
CCCc1noc2c1/C(=N\O)CC(c1ccccc1)C2 (stereo unspecified),-1.3%,-2%,0.7,?,13,0.8
CC12CCC(C(=O)N/N=C/c3ccc(O)cc3)(OC1=O)C2(C)C (stereo unspecified),-28%,9%,.,?,.,0.5
O=C(CSc1nnc(Nc2ccccc2)s1)NC1CCS(=O)(=O)C1 (stereo unspecified),.,-8%,-0.9,-14%,3,.
Nc1ncnc2nc(SCc3ccccc3)[nH]c12,-2.7%,-11%,0.0,0%,-11,4.2
CCOc1cc(C(=S)N2CCCC2)ccc1OCc1ccccc1,-2.0%,0%,2.5,-6%[15.4 µM],-3,-5.5
CC(=O)c1ccc(NS(=O)(=O)c2ccc3c(c2)N(C(C)=O)CCO3)cc1,-11%,-12%,0.3,2%,-8,-6.0
O=C(c1ccccc1)N1CCCc2ccccc21,1.8%,12%,0.5,-10%[15.4 µM],-9,3.4
CN(CC(=O)Nc1ccc2c(c1)OCO2)S(=O)(=O)c1cccs1,.,6%,-0.6,-11%,4,-2.6
CC(=O)Oc1c(S(=O)(=O)c2ccc(C)cc2)c(C)nn1-c1ccccc1,-2.5%,-6%,1.3,8%,-7,1.3
O=C1c2ccccc2C(=O)N1OCc1ccccc1,-0.7%,-1%,1.5,-2%,-9,-1.0
CCC(C)C(NC(N)=O)C(=O)Nc1ccc(C)c(Cl)c1 (stereo unspecified),28µM*,?,-0.2,14%,-14,-6.0
CON/C=C(\C=Nc1ccc(F)cc1)c1ncc(C(F)(F)F)cc1Cl,0.7%,0%,1.1,-50%[inhibitor],15,-0.3
CC1=NOC(=O)/C1=C/c1ccc(O)cc1,.,0%,-0.7,11%[15.4 µM],0,15
CCOc1cccc(C(=O)Nc2nnc(-c3cccs3)s2)c1,?,-10%,0.7,3%,2,2.9
CNC1=CC(=O)CC(c2ccccc2)C1 (stereo unspecified),-2.4%,3%,-0.3,34%,-14,0.4
O=C(COC(=O)c1cccs1)Nc1cccc(S(=O)(=O)N2CCCCC2)c1,-1.4%,-7%,2.1,12%[15.4 µM],-1,.
O=c1oc2ccccc2c(N2CCCCC2)c1CN1CCCCC1,-0.2%,-14%,0.3,-16%,28,4.4
O=C(Nc1ccc(F)cc1F)c1ccc(-n2cccn2)nc1,0.6%,3%,-1.1,2%[15.4 µM],12,0.2
COc1ccccc1CNC(=O)CS(=O)(=O)Cc1nc(-c2ccccc2C)oc1C,32%,.,3.3,.,-2,.
CC(C)CN(C(=O)COC(=O)Cc1cccc2ccccc12)c1c(N)n(Cc2ccccc2)c(=O)[nH]c1=O,0.6%,-7%,1.4,-4%,-13,.
COc1ccc(OC)c(Nc2nc(N)nc(CSc3nnc(N)s3)n2)c1,-3.9%,9%,-0.1,-21%,-7,-1.5
COc1ccc(C(=O)N/C(=C\c2cn(C)c3ccccc23)C(=O)N2CCN(C)CC2)cc1,-1.9%,9%,-0.6,-19%,-12,.
Cc1ccc(-c2noc(-c3ccccc3NC(=O)C3CC(=O)N(c4ccccc4C)C3)n2)cc1 (stereo unspecified),-20%,.,0.0,.,-16,.
Cc1ccc(S(=O)(=O)N2CCOCC2)cc1NC(=O)c1cccc(S(=O)(=O)N2CCCC2)c1,-2.3%,-3%,1.1,-24%,3,-3.7
CCn1cc(CN2CCc3c([nH]c4ccccc34)C2c2cccc(O)c2)c(C)n1 (stereo unspecified),.,.,0.8,7%[15.4 µM],29,-0.2
COC(=O)/C(C#N)=C/c1ccc(OC(=O)c2ccccn2)cc1,1.4%,12%,-0.7,-15%,6,26

Carrying on:
SMILES,ClpP mod,gsp antagonist,TRPML1 ag,gsp ag,TRPML1 inh,Menin MLL FP FL
COc1ccc(C2=NOC(Cn3nc(C(=O)O)cc3-c3ccccc3)C2)cc1 (stereo unspecified),-1.1%,-7%,0.3,2%,16,-2.4
CC(C)c1cccc(C(C)C)c1NC(=O)COC(=O)C1CCC1,.,13%,-1.0,2%[15.4 µM],0,.
COc1cc(OC)c(NC(=O)Cn2c(SCc3ccccc3F)nc3cccnc32)cc1Cl,-3.1%,.,-0.5,.,5,.
COc1ccc(OC)c(NC(=O)[C@@H]2CCCN2C(=O)c2cccs2)c1,0.0%,-7%,-0.5,-4%[15.4 µM],18,-1.2
Cc1ccc(/C=C(\C#N)C(=O)NC(C)c2ccccc2)o1 (stereo unspecified),-2.4%,0%,0.0,27%,3,?
COc1ccc(C2=C(C)C(=NCCCN3CCN(c4cc(Cl)ccc4C)CC3)NS2(=O)=O)cc1,-11%,.,0.9,.,-19,.
Cc1cccc(N2CCN(C(=O)c3cc4c(=O)oc5ccccc5c4s3)CC2C)c1 (stereo unspecified),-3.4%,.,-0.9,.,9,.
CCCCNC(=O)CN1C(=O)c2cccnc2Sc2ccccc21,0.4%,.,1.1,.,-21,.
CN(CC(=O)N1CCN(c2ccccc2)CC1)S(=O)(=O)c1cccs1,.,6%,1.3,-18%,-17,-2.5
O=C(Nc1ccccc1C(F)(F)F)c1ccccn1,.,-20%,-0.9,23%[15.4 µM],-11,-1.8
CCOC(=O)C1NN=C(C(=O)c2ccccc2)C1c1ccc(OC)cc1 (stereo unspecified),.,-23%,-0.8,1%[15.4 µM],0,0.4
O=C(Cc1ccccc1F)NCC1(N2CCOCC2)CCCCC1,.,-8%,0.8,10%[15.4 µM],1,4.4
CCCCc1nnc(NC(=O)Cc2ccc(S(=O)(=O)N3CCOCC3)s2)s1,-2.6%,-13%,-1.0,1%,-13,.
